From PubChem
H5N1 antiviral – antiviral screen in MDCK cells, H5N1 avian flu; inhibition, % at 50 µM; AID 740; cytopathic effect, luminescence, 72 h; hits give high values; no value below 0 was filed and about half of the inactive calls have no number; reference of the scale not given here; actives 0.07% (n = 96,000); in the data active = inhibition above about 25%
Starred values were filed as active, the others as inactive; i = inactive.

SMILES | H5N1 antiviral
O=C(NC1CCCC1)C1c2ccccc2C(=O)N1C1CCCCC1 (stereo unspecified) | 0.7
O=C(C1=C(O)C(=O)N(Cc2ccccc2)C1c1ccncc1)c1ccco1 (stereo unspecified) | 0.2
CCOc1ccc(S(=O)(=O)Nc2ccc3c(c2)OCO3)c2cccnc12 | 2.8
Cc1ccccc1C(=O)NNC(=O)C(C)N1C(=O)c2ccccc2C1=O (stereo unspecified) | 0.0
CCCc1[nH]nc2c1C(c1ccc(OC)c(CSC3=NCCS3)c1)C(C#N)=C(N)O2 (stereo unspecified) | i
Cn1c(=O)c2cc(S(=O)(=O)NC(Cc3ccccc3)C(=O)NCc3ccco3)ccc2n(C)c1=O (stereo unspecified) | 1.1
O=S(=O)(c1ccc(Br)s1)N1CCC(Cc2ccccc2)CC1 | i
O=C(COC(=O)c1cnccn1)c1ccc2ccccc2c1 | i
Cc1ccc(Cn2nnc3c(=O)[nH]c(C4CCCN(C(=O)Nc5ccc(F)cc5)C4)nc32)cc1 (stereo unspecified) | i
Cn1c(CSc2nc3ccccc3s2)nc2ccccc21 | 0.1
Nc1nc(N2C(=O)C3CC=CCC3C2=O)nn1-c1ccccc1 (stereo unspecified) | i
O=C(NCC(c1cccs1)N1CCOCC1)c1cc2ccccc2o1 (stereo unspecified) | 0.1
CCCCN(CCCC)S(=O)(=O)c1ccc2oc(C(=O)N3CCOCC3)c(C)c2c1 | 1.0
CCn1c(NCc2ccccn2)nc2c1c(=O)n(C)c(=O)n2C | 2.9
O=C(NC1CCCCC1)N(Cc1ccccc1)Cc1ccco1 | 3.8
O=C(Nc1ccc2c(c1)OCCO2)c1cccc2nc3ccccc3nc12 | i
Cc1cccc(OCCCSc2nc3ccccc3[nH]2)c1 | i
Cc1c(OCc2ccccc2)c(=O)ccn1Cc1ccccc1 | 2.9
CCSc1nnc(NC(=O)CSc2nc3c(c(=O)n2CC)SC(C)C3)s1 (stereo unspecified) | 5.7
N#C/C(=C\c1ccc(N2CCOCC2)o1)c1ccccc1 | i
COC(=O)c1ccc(Cl)c(NC(C)=O)c1 | i
COc1cc(NS(=O)(=O)c2ccc(NC(=O)c3ccco3)cc2)nc(OC)n1 | 0.2
COc1ccc(C(=O)Nc2nc(-c3ccc(OC)cc3)c(-c3ccc([N+](=O)[O-])cc3)s2)cc1 | i
Cc1[nH]n(-c2ccccc2)c(=O)c1Sc1ccc(Cl)cc1 | i
O=C(CN(Cc1cccs1)C(=O)CNC(=O)c1ccco1)NC1CCCCC1 | i
Cc1ccc(S(=O)(=O)NC(CC(=O)O)c2ccccc2)cc1 (stereo unspecified) | i
CCC(=O)Nc1ccc(/C(C)=N\NS(=O)(=O)c2ccc(C)cc2)cc1 | 0.2
CCOC(=O)c1[nH]c(CSc2nnc(-c3ccncc3)n2CCOC)c(C(=O)OCC)c1C | 0.7
CN1C(=O)C2C=CC1C1C(=O)N(c3ccccc3)C(=O)C21 (stereo unspecified) | i
COC(=O)C(N)Cc1ccc(O)cc1 (stereo unspecified) | i
N#Cc1cnc2sc3ccccc3n2c1=N | 1.0
CCC(C)(C)n1nnnc1C(c1ccc(OC)c(OC)c1)N1CCN(c2cccc(OC)c2)CC1 (stereo unspecified) | 0.9
Cc1ccc(-n2nc(-c3ccco3)cc2C(=O)NCc2cccnc2)cc1 | 0.3
COc1ccc(NC(=O)CSc2nnc(Cc3cccn3C)n2CCc2ccccc2)c(OC)c1 | i
CCCC(=O)Nc1nnc(Cc2ccccc2)s1 | 0.5
COC(=O)CSc1ccc(C#N)c(SCC(=O)OC)c1 | i
Cc1nn(-c2ccccc2)c(C)c1C(=O)OCC(=O)N1CCN(S(=O)(=O)c2ccccc2)CC1 | 0.9
Cc1ccccc1-n1nc2c(c1NC(=O)c1c(-c3ccccc3Cl)noc1C)CSC2 | i
CC1=NOC2(C1)N(C)c1ccccc1C2(C)C (stereo unspecified) | i
Cc1nc(SCC(=O)NCc2ccccc2)c2oc3ccccc3c2n1 | i
Cc1ccc(Cn2nnc3c(=O)n(Cc4ccccc4C)cnc32)cc1 | 0.9
Cn1nc(-c2ccc(OCC(=O)NCC3CCCO3)cc2)c2ccccc2c1=O (stereo unspecified) | i
COc1ccc(NC(=O)N2CCN(S(C)(=O)=O)CC2)cc1OC | 0.3
COc1ccc(C(=O)Nn2c(SCC(=O)NCC3CCCO3)nc3ccccc3c2=O)cc1 (stereo unspecified) | i
Brc1ccc(C2C3=C(Nc4ncnn42)c2ccccc2OC3c2ccncc2)cc1 (stereo unspecified) | 8.4
CCOc1cc(S(=O)(=O)Nc2ccc(CC)cc2)ccc1Cl | i
O=C(NCc1ccco1)c1cnn2c1NC(c1ccccc1)CC2C(F)(F)F (stereo unspecified) | 3.9
Cc1ccc2oc(=O)c3cc(C(=O)NCc4ccco4)sc3c2c1 | 1.1

Of the compounds above, these have an NH in an aromatic ring.
SMILES | H5N1 antiviral
CCCc1[nH]nc2c1C(c1ccc(OC)c(CSC3=NCCS3)c1)C(C#N)=C(N)O2 (stereo unspecified) | i
Cc1ccc(Cn2nnc3c(=O)[nH]c(C4CCCN(C(=O)Nc5ccc(F)cc5)C4)nc32)cc1 (stereo unspecified) | i
Cc1cccc(OCCCSc2nc3ccccc3[nH]2)c1 | i
Cc1[nH]n(-c2ccccc2)c(=O)c1Sc1ccc(Cl)cc1 | i
CCOC(=O)c1[nH]c(CSc2nnc(-c3ccncc3)n2CCOC)c(C(=O)OCC)c1C | 0.7

Another view of 2 compounds above:
Molecule	H5N1 antiviral
Cc1ccccc1-n1nc2c(c1NC(=O)c1c(-c3ccccc3Cl)noc1C)CSC2	i
CC1=NOC2(C1)N(C)c1ccccc1C2(C)C (stereo unspecified)	i

The listing continues.
SMILES | H5N1 antiviral
CC(O)CN(CCC(N)=O)CCC(N)=O (stereo unspecified) | i
O=C(Nc1cccc(Cl)c1N1CCCC1)c1ccc(Br)o1 | 0.9
COCCSc1nnc(NC(=O)C2CCCCC2)s1 | 1.4
Cc1cccc(CS(=O)(=O)Cc2ccc(C(=O)NCC3CCCO3)o2)c1 (stereo unspecified) | 1.5
CSc1nnc2n(-c3ccccc3)c(=O)c3c4c(sc3n12)CCC4 | i
Cc1c(S(=O)(=O)Nc2cccc(Cl)c2)c(=O)n(C)c(=O)n1C | 1.4
Cc1cc(Nc2ccccc2)n(-c2cccc(Cl)c2)n1 | 0.5
Cn1nnnc1SCC(=O)Nc1ccccc1N1CCCCC1 | i
O=S(=O)(c1ccc(-c2nnc(SCc3nnc(-c4ccccc4)o3)o2)cc1)N1CCCC1 | i
Nc1ccc(Cc2ccc(N)c(C(=O)O)c2)cc1C(=O)O | i
CN(Cc1cccs1)c1ncnc2sccc12 | 0.8
O=C(NCCCn1ccnc1)Nc1ccc(Cl)cc1Cl | i
CCc1ccc(N(C(=O)CNC(=O)c2cccs2)C(C(=O)NC(C)(C)C)c2cc(OC)c(OC)c(OC)c2)cc1 (stereo unspecified) | 0.0
CCOc1ccccc1NC(=O)c1nc[nH]c1C(=O)Nc1ccccc1OCC | i
Cc1nc(NCCc2cnc[nH]2)c2oc3ccccc3c2n1 | 0.7
Cc1ccc(NC(=O)C2C(C(=O)O)C3C=CC2C32CC2)cc1 (stereo unspecified) | 0.0
CCOC(=O)c1cc2sccc2n1Cc1ccccc1 | i
CC(C)(/C=N/O)/[N+]([O-])=C/c1ccco1 | i
CCOc1cc(N2CCOCC2)c(OCC)cc1NC(=O)Cc1cccc(OC)c1 | 1.4
COc1ccc(N(CC(=O)NC2CCCC2)C(=O)Cn2nnc(-c3ccc(C)cc3)n2)cc1OC | i
O=C(Nc1nnc(-c2ccccc2SCc2ccccc2)s1)Nc1ccccc1F | i
c1ccc(Cc2nn3c(Cn4cnc5ccccc54)nnc3s2)cc1 | 2.0
CN(C)c1ccc(C(c2nnnn2C(C)(C)C)N2CCc3ccccc3C2)cc1 (stereo unspecified) | i
CCN(c1cccc(C)c1)c1ncnc2nc[nH]c12 | 2.5

Sorted by formula weight (low to high): some entries from above
SMILES | H5N1 antiviral
CC(C)(/C=N/O)/[N+]([O-])=C/c1ccco1 | i
CN(C)c1ccc(C(c2nnnn2C(C)(C)C)N2CCc3ccccc3C2)cc1 (stereo unspecified) | i
O=C(Nc1nnc(-c2ccccc2SCc2ccccc2)s1)Nc1ccccc1F | i
CCc1ccc(N(C(=O)CNC(=O)c2cccs2)C(C(=O)NC(C)(C)C)c2cc(OC)c(OC)c(OC)c2)cc1 (stereo unspecified) | 0.0

Going on with the list.
SMILES | H5N1 antiviral
COc1ccc(C(=O)Nc2cccc(C(=O)N3CCCC3)c2)cc1 | 0.6
Cc1nc2ccccn2c1C(=O)NCc1ccc2c(c1)OCO2 | 0.4
O=C(C1CCN(C2CC(=O)N(c3ccc(F)cc3)C2=O)CC1)N1CCOCC1 (stereo unspecified) | 0.1
Cc1c(C(=O)O)oc2ccc(S(=O)(=O)N3CCC(C)CC3)cc12 | 1.9
COc1cc(-c2nnn(CC(=O)NC3CCS(=O)(=O)C3)n2)ccc1OCc1ccccc1 (stereo unspecified) | i
COC(=O)c1cc(Br)c(=O)n(Cc2ccc(OC)c(OC)c2)c1 | i
CN(C)S(=O)(=O)c1cccc(C(=O)N2CCN(Cc3ccccc3)CC2)c1 | 0.1
COc1ccc(OC)c(NS(=O)(=O)c2cc(OC)ccc2OC)c1 | 2.0
CCN(CC)S(=O)(=O)c1ccc2nc(COC(=O)c3n[nH]c4ccccc34)[nH]c2c1 | 0.5
O=C(O)c1ccc(-n2cccc2)cc1O | 0.5
COC(=O)c1ccc2c(=O)n(CCCCCC(=O)NCc3ccccc3)c(=O)[nH]c2c1 | 1.3
O=C(Nc1ccc2c(c1)OCO2)c1ccc(Br)c(S(=O)(=O)N2CCCC2)c1 | 1.5
COc1ccc(C(=O)NCc2ccccc2)cc1S(=O)(=O)N1CCCc2ccccc21 | 1.0
O=C(CSc1nnc(CNC(=O)c2ccccc2F)o1)c1ccccc1 | 0.5
CC(=O)c1ccc(NC(=O)C2CCCN2S(=O)(=O)c2ccc(C)cc2)cc1 (stereo unspecified) | i
COc1cc([N+](=O)[O-])ccc1NC(=O)CCCOc1ccccc1 | i
O=C1NC(=Nc2ccccc2)S/C1=C\c1cccn1-c1ccccc1 | i
O=C(Nc1ccccc1C(F)(F)F)N1CCC(n2c(=O)[nH]c3ccccc32)CC1 | 2.5
CCN1C2=C(C(=O)CCC2)C(c2ccc(O)c(Br)c2)C2=C1CCCC2=O | 0.5
COc1cccc(CNC(=O)c2ccccc2N)c1 | 0.3
Cc1ccc(NC(=O)CCCC(=O)O)c(Br)c1 | i
Cc1cc(C)n2nc(CC(=O)NC3CCCCCC3)nc2n1 | i
CC1Cc2ccccc2N1C(=O)CSc1nc(N)cc(=O)[nH]1 (stereo unspecified) | i
CCCOC(=O)c1ccc(NC(=O)CCOc2ccccc2)cc1 | i
CC(C)[C@@H]1CC[C@@H](C)c2c(-c3ccccc3)n[nH]c21 | 3.6
Cc1csc(NC(=O)c2cc3c(s2)CCCCC3)n1 | i
COc1cc(/C=C/c2c([N+](=O)[O-])c(=O)n(C)c(=O)n2C)cc(OC)c1OC | i
COc1ccc(CC(=O)NCc2ccc3c(c2)OCO3)cc1 | 0.6
O=C1Nc2ccc(S(=O)(=O)N3CCOCC3)c3cccc1c23 | i
CCNC(=S)NNC(=O)c1cc(-c2cc(C)ccc2C)nc2ccccc12 | 1.1
Cc1cccc(OCCCC(=O)Nc2ccc(S(=O)(=O)Nc3onc(C)c3C)cc2)c1C | 1.0
CCCCn1nc2cc(C(=O)NC[C@@H]3CCCO3)ccc2c1OCC | 1.8
c1ccc(Nc2nc(-c3cccnc3)cs2)nc1 | 0.5
COc1ccc(N=c2scc(-c3ccc(S(=O)(=O)N4CCOCC4)cc3)n2CCCO)cc1 | 7.9
CSc1nc(N)nc(SCC(=O)OC(C)C)c1C#N | 0.2
CCN1CCN(C(=O)CCNC(=O)Cn2ccc3ccccc3c2=O)CC1 | 0.4
Cc1cccc(NC(=O)CCCN2C(=O)c3cccc4cccc(c34)C2=O)c1 | 0.8
CCCc1cc2c(cc1NC(=O)c1ccccc1C)OCO2 | 1.1
COc1ccc(NC(=O)c2cnn3c(C(F)(F)F)cc(-c4ccco4)nc23)cc1OC | 0.2
CN(c1ncc(C(F)(F)F)cc1Cl)n1cc(C(N)=O)c2ccccc2c1=O | i
CCOc1ccc(-c2nn[nH]n2)cc1 | i
COCCn1nnnc1C(c1cc2cc(C)ccc2[nH]c1=O)N1CCc2ccccc21 (stereo unspecified) | 1.1
Cc1ccc2oc3c(c(=O)c2c1)C(c1cccc(O)c1)N(c1ccccn1)C3=O (stereo unspecified) | i
COc1cc(Cn2c(-c3nonc3N)nc3ccccc32)ccc1C | i
COCCn1c(-c2ccccc2F)n[nH]c1=S | 1.4
Clc1cccc(Cl)c1CON/C=N/c1ncnc2sccc12 | i
N#Cc1c(N2C(=O)C3C4C=CC(C4)C3C2=O)sc2c1CCC2 (stereo unspecified) | 0.8
CCOC(=O)c1ccc(NC(=O)N2CCCCC2)cc1 | i
CCC(CC)C(=O)NCCNC(=O)C(CC)CC | 0.0
Cc1cc(C(=O)N2CCN(S(C)(=O)=O)CC2)cs1 | 0.2
CC1=Nn2c(nnc2-c2ccc(F)cc2)SC1 | i
O=C(C1CCN(S(=O)(=O)c2cnc[nH]2)CC1)N1CCN(Cc2ccc3c(c2)OCO3)CC1 | i
CCC(=O)N(Cc1cc2cccc(C)c2[nH]c1=O)c1ccccc1OC | i
Nc1c(N=Nc2cccc(Cl)c2)c(=O)[nH]n1-c1ccccc1 | i
CCOC(=O)c1cn(CC(=O)Nc2ccc3c(c2)OCCO3)nn1 | 1.7
COc1ccc(C2CC(=O)n3c(nc4ccccc43)S2)cc1OC (stereo unspecified) | i
CCCCCCCCOC1OC(CO)C(O)C(O)C1NC(C)=O (stereo unspecified) | i
Cn1c(SCC(=O)NCc2ccco2)nnc1-c1c[nH]c2ccccc12 | i
N#Cc1cc2c(nc1SCC(=O)Nc1sc3c(c1C#N)CCC3)CCCCCC2 | i
O=C1/C(=C/c2ccc([N+](=O)[O-])cc2)C=C(c2ccccc2)N1c1ccc(O)cc1 | i

The list is partial. The share of hits here may be higher or lower than overall.
